# Mtb hypoxia rep: inhibitors of hypoxia-regulated fluorescent reporter in Mycobacterium tuberculosis; M. tuberculosis hypoxia-regulated fluorescent reporter, fluorescence; fluorescence inhibition, % (test concentration not listed); 300,000 tested, 0.1% active;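 active means 35 to 45% if threefold the growth effect, above 45% if 1.5-fold the growth effect; inactive means the rest, general growth blockers included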;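 further: wells of about 50 µL received 100 nL stock; 0% = vehicle wells and 100% = reference inhibitor wells; whole bacteria with a GFP reporter of the hypoxia response; strong numbers were not always called active; many hits fall short of the cut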
# Sa RN4220 lethal: S. aureus RN4220 growth inhibition; AID 1259311; 330,000 tested, 0.33% active; OD600, 16 h; inhibition, % (no concentration beside the values);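 active means z-score of -3 or lower and OD600 up to 0.18 on both plates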;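 further: plate controls were untreated cells for no effect and reference antibiotic for full effect; stock transfer was 100 nL into about 80 µL; one replicate is shown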
# BJeLR lethal: BJeLR cell viability loss. BJeLR (HRASV12) viability, CellTiter-Glo ATP luminescence, 48 h; reference of the scale not given here. inhibition, % (concentration not given with the values). 300,000 tested, 0.17% active;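 active means replicate mean above 50%; inconclusive means above 50% but judged a plate artefact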;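 further: 50 nL library stock added to about 25 µL; numbers are from one replicate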
# Bead autofluor: compound fluorescence in toxin protease inhibitor counterscreen. compound autofluorescence counterscreen, microsphere flow cytometry; active compounds read high. fluorescence intensity (no concentration beside the values). 360,000 tested, 3.1% active. AID 624483;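 active means at least 3 SD above the mean of all compounds, about 16000 in these data; inconclusive means too few beads counted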;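 further: 100 nL of 1 mM stock went into each well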
# PrP 5UTR inh: suppresses PrP 5' UTR mRNA reporter expression; inhibition, % (no concentration beside the values); cell-based PrP 5' UTR mRNA reporter, plate reader; 340,000 tested, 0.35% active;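 active means every replicate at 50% or more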;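 further: 0 = median of the neutral control wells; tested in H4 reporter cells; numbers are from one replicate; inactives centre near -14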
# ugtP null kill: growth inhibition of S. aureus ugtP deletion strain | growth inhibition, % (no concentration beside the values) | 330,000 tested, 0.54% active | S. aureus RN4220 ugtP deletion, OD600 growth, 16 h; some inactives read as strong as hits;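 active means z-score under -3 and OD600 up to 0.15 on both plates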;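 further: plate controls were untreated wells for no effect and antibiotic for full effect; wells of about 80 µL received 100 nL stock; the first replicate is given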
# Mtb hypoxia rep growth: also measured in Mtb hypoxia rep; calls as there; growth inhibition, %; measured here: M. tuberculosis growth (absorbance);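 0% = vehicle and 100% = reference antibiotic; read after six days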
# The depositor's hits bear a star; ? = inconclusive; · = not tested or not shown. The order is random; 4.1% or so of the library scored in one or more.
SMILES,PrP 5UTR inh,Sa RN4220 lethal,ugtP null kill,Mtb hypoxia rep growth,Mtb hypoxia rep,BJeLR lethal,Bead autofluor
Cc1cccn2c(=O)c(/C=C(\C#N)C(=O)NC3CCS(=O)(=O)C3)c(Oc3ccccc3Cl)nc12 (configuration not stated),10,0.3,-3,-2,-7,-11,4203
COc1cc(C(=O)NCC(=O)NN=Cc2ccc(OC(=O)c3ccco3)cc2)cc(OC)c1OC,·,3.2,-9,-14,-24,·,·
O=C(O)[C@H]1CCCC[C@H]1C(=O)Nc1ccc(S(=O)(=O)N2CCOCC2)cc1,-6,0.7,6,4,-4,-4,5675
CC(NC(=O)CSc1nc(=O)cc(N)n1-c1ccccc1)c1ccccc1 (configuration not stated),-10,2.2,0,13,1,-9,1966
COC(=O)c1cc(S(=O)(=O)NCC2CCN(Cc3ccc(Cl)cc3)CC2)c[nH]1,-16,-3.0,5,4,8,-1,4581
CN(CC(=O)Nc1ccccc1Cl)C(=O)Cn1cnc2ccccc2c1=O,-28,4.3,4,7,6,·,5065
COC(=O)c1ccccc1OC(=O)c1ccc(Br)o1,-15,4.8,-1,·,·,1,2637
C[C@H]1C=C(C(=O)O)O[C@@H](OCc2ccc(CO)cc2)C1,-11,·,·,·,·,-2,4029
O=C(Nc1ccc2c(c1)C(=O)N(c1ccccc1)C2=O)c1cccs1,-28,3.7,9,-1,-3,2,4118
COc1ccc(/C=C/C(=O)OCC(=O)N2CCCCCC2)cc1OC,3,3.6,6,8,6,·,3664
N/C(=N\NC(=O)c1sccc1OCc1ccc(Cl)cc1Cl)c1ccccn1,1,·,·,·,·,15,3933
O=C1CCCc2nc3c(cc21)C(O)Oc1c-3ccc2ccccc12 (configuration not stated),-45,·,·,·,·,-1,3291
COc1ccc(N(CC(=O)NC2CCCC2)C(=O)Cn2nnc(-c3ccc(F)cc3)n2)cc1,-8,5.4,0,-2,-8,4,4390
O=C(Cn1c(-c2ccccn2)nc2ccccc21)N/N=C/c1ccccn1,-4,·,·,·,·,2,2055
COCc1cc(NCc2ccc(Cl)cc2)nc(C)n1,-14,1.4,9,4,7,-1,2986
CN(C)S(=O)(=O)c1cccc(NS(=O)(=O)c2ccc(Cl)s2)c1,-62,17,-3,0,7,11,2756
C/C(Cc1ccccc1)=N\NC(=O)CCCCCC(=O)N/N=C(\C)Cc1ccccc1,-9,·,·,·,·,1,4600
O=C(COC(=O)c1ccccn1)NC12CC3CC(CC(C3)C1)C2,-13,2.5,6,-7,2,1,7740
O=C(Nc1ccc(F)c(F)c1)C1CCCCC1,-11,4.4,3,12,10,·,3773
CCc1nnc(NC(=O)c2cccnc2)s1,-30,1.8,2,·,·,2,2588
O=C(Nc1ccc(S(=O)(=O)Nc2ccccn2)cc1)c1ccccc1,-7,1.3,4,4,4,2,5933
CCCSc1oc(-c2ccco2)nc1S(=O)(=O)c1ccc(C)cc1,1,5.6,5,4,1,-11,4696
CC(=O)O[C@]1(C(C)=O)CC[C@H]2[C@@H]3C=C(Cl)C4=CC(=O)CC[C@]4(C)[C@H]3CC[C@@]21C,-13,·,·,·,·,2,4238
C/C(=N\NC(=O)c1cc(-c2ccccc2C)nc2ccccc12)c1cccnc1,-16,·,·,·,·,4,5473
COC(=O)c1c(C)nc(C)c2c(=O)oc3ccccc3c12,-4,·,·,·,·,4,2541
COC(CN(C(=O)CCl)C(C(=O)NC1CCCC(C)C1C)c1ccc(C)cc1)OC (configuration not stated),-10,·,·,·,·,-3,11780
CC(C)(C)NC(=O)CSC(=Nc1ccc(F)cc1)NC#N,-20,0.3,-2,·,·,-10,2935
O=C1OCCC1Sc1nnc(-c2cccc(Br)c2)o1 (configuration not stated),-8,1.5,-3,3,1,2,20056*
CC(=NNC(=O)CSc1nc(C)cc(C)n1)c1cccs1,·,-2.2,-2,-10,-11,·,·
CC(NC(=O)CCN1C(=O)c2ccccc2S1(=O)=O)c1ccccc1 (configuration not stated),-18,-0.6,2,-6,6,6,5892
CCN(CC)c1ccc(/C=C/c2cccc[n+]2C)c(OC)c1,-7,·,·,·,·,46,6056
CC(=O)SC1CC(=O)N(c2ccc(C(C)(C)C)cc2)C1=O (configuration not stated),-23,1.8,-2,-1,9,4,5742
Cc1cc(C(=O)N/N=C/c2ccc(Br)o2)n[nH]1,-6,·,·,·,·,0,5883
Cc1nn(-c2ccccc2)c(Cl)c1C=NNC(=O)c1cnccn1,·,2.7,-6,-1,6,·,·
CCCn1nc(CC(=O)OCC)c2ccccc2c1=O,-5,-8.9,-4,0,-8,4,3684
COc1ccc(CCn2c(=N)c(C(=O)NC3CCCC3)cc3c(=O)n4ccccc4nc32)cc1OC,-4,2.7,8,-10,-7,0,4967
Fc1ccccc1NC(=S)N(CCN1CCCCC1)Cc1ccco1,-25,5.0,14,0,13,-2,4922
CCNc1ccc(S(=O)(=O)NCCN(C)C)cc1[N+](=O)[O-],-22,2.7,9,-2,-1,7,4440
CC1(C)Cc2ccccc2C(/C(=N\Nc2cccc(Cl)c2)C(N)=O)=N1,-13,·,·,·,·,3,2120
O=C(COc1ccccc1)NCC(=O)N/N=C/c1ccc(Cl)cc1,-28,·,·,·,·,6,4908
COC(=O)C1=C(c2cccc(OC)c2OC)CC2CCC1N2C(=O)NCCCOC(C)C (configuration not stated),·,3.1,5,14,13,·,·
CC(=O)c1cccc(OCc2cc(C(=O)N3C[C@H]4CC[C@H]3C4)no2)c1,-47,·,·,·,·,-2,4581
CCCNC(=O)NC(=O)CSc1ncc(C(F)(F)F)cc1Cl,-29,1.7,0,2,3,11,10107
COc1ccc(OC)c(C2Nc3ccccc3NC3=C2C(=O)CC(C)(C)C3)c1 (configuration not stated),-15,3.6,10,-6,1,-10,4142
O=C(CCS(=O)(=O)c1cc2c(cc1Cl)NC(=O)CO2)NCc1ccccc1,3,3.5,3,-11,-6,3,5325
CC(=NNC(=O)c1nnn(-c2nonc2N)c1CSc1ccc(Cl)cc1)c1ccco1,·,2.4,-3,-1,2,·,·
Nc1c(C(=O)NCC2CCCO2)c2nc3ccccc3nc2n1-c1ccccc1 (configuration not stated),7,-0.5,-5,·,·,-1,2089
O=S(=O)(Nc1ccc(F)cc1)N1CCOCC1,-22,0.6,3,10,16,0,3825
CCN(CC)S(=O)(=O)c1ccc(C)c(NC(=O)CSc2nc3ccccc3[nH]2)c1,-14,2.7,-6,1,7,2,2501
CC(C)C(NC(=O)c1ccco1)C(=O)OCC(=O)Nc1ccc(C(N)=O)cc1 (configuration not stated),-19,5.4,2,7,7,-3,4325

# Other records follow.
SMILES,PrP 5UTR inh,Sa RN4220 lethal,ugtP null kill,Mtb hypoxia rep growth,Mtb hypoxia rep,BJeLR lethal,Bead autofluor
O=C(COC(=O)c1c[nH]c(=O)[nH]c1=O)Nc1ccccc1Br,-10,4.9,11,7,5,2,3837
C=CCOC(=O)C1=C[C@H](c2csc3ccccc23)C[C@H](OCc2ccc(CO)cc2)O1,-27,·,·,·,·,-3,3392
CC(C)Oc1ccc(CN2CCCC(CO)(Cc3ccc(F)cc3)C2)cc1 (configuration not stated),-10,0.6,-4,17,-1,-1,4970
CCC(=O)N1CCC(C(N)=O)(N2CCCCC2)CC1,-27,1.4,5,6,15,5,4112
CCC1(C)NC(=O)N(CC(=O)Nc2cc(C)on2)C1=O (configuration not stated),-15,4.9,5,2,4,·,3144
O=Cc1c(N2CCCCCC2)nc2ccccn2c1=O,-20,5.0,-1,6,14,-9,11267
C=CCNc1nc(SCC=C)nc2ccsc12,5,·,·,·,·,-12,5899
C/C(=N\OC(=O)c1ccc(Cl)cc1)c1sc(-c2ccccc2)nc1C,-39,·,·,·,·,-3,2340
CCOc1ccc(N(CC(=O)NCc2ccco2)S(=O)(=O)c2ccc(OC)c(OC)c2)cc1,-17,-12,-3,7,13,4,3418
Cc1cc(C)nc(SCC(N)=O)n1,·,-0.9,-6,-7,-1,4,3259
CCCCOc1ccc(C(=O)NCC(=O)N2CC=C(c3ccccc3)CC2)cc1,-5,1.5,1,3,3,6,5715
O=C(CCCOC(=O)c1ccc(O)cc1O)c1ccc(Br)cc1,-11,13,-3,6,-1,·,5613
CN1CCN(C(=O)c2ccccc2NC(=O)c2ccc(C(C)(C)C)cc2)CC1,-20,-3.3,-2,2,8,-4,4475
CC1(C)CC(=O)c2cnc(NC3CC3)nc2C1,-2,·,·,·,·,2,2031
COc1ccc(Cl)cc1CSc1n[nH]c(C)n1,2,4.6,6,3,0,5,11090
COc1ccc(C=NNc2ccc([N+](=O)[O-])cc2[N+](=O)[O-])c(C(=O)O)c1OC,·,5.7,13,8,19,·,·
Cc1cc(NC(=O)Nc2cc(Cl)sc2Cl)no1,·,-3.3,5,-1,8,-8,3912
O=C(CC1CCCCC1)NCc1ccc(Cl)cc1,-33,-3.2,1,·,·,-3,·
C/C=C/C=N/NC(=O)CN(c1ccc(Br)cc1)S(=O)(=O)c1ccccc1,-25,·,·,·,·,-8,10129
CCOC(=O)c1ccc(NC(=O)c2nc[nH]c2C(=O)NC(CC(C)C)C(=O)OCc2ccccc2)cc1 (configuration not stated),·,-5.2,-31,5,-2,·,·
CC1(C)CC(=O)N(c2cccc(Cl)c2)C(=O)C1,-30,3.4,9,-2,-1,0,4076
COc1ccc(-c2cc(C(=O)NN=Cc3cccnc3)c3cc(C)cc(C)c3n2)cc1,·,-3.6,18,-4,8,·,·
O=C(O)/C=C/C(=O)Nc1ccc(S(=O)(=O)N2CCCC2)cc1,-10,3.1,8,2,11,1,3294
Cc1ccc(NC(=S)NC2CC3CCC(C2)N3Cc2ccco2)cc1C (configuration not stated),-17,5.7,5,6,0,1,10584
NC(=O)C1CCN(CCC(=O)Nc2ccc(Br)cc2)CC1,-16,1.6,-2,-6,6,-2,23853*
CS(=O)(=O)c1ccc(NC(=O)CCN2C(=O)C3CCCCC3C2=O)cc1 (configuration not stated),-23,3.0,10,-1,9,8,?
CN(CC(=O)Nc1ccc(F)cc1)C(=O)Cn1c(=O)oc2ccccc21,-8,-2.1,0,-4,-3,·,3530
O=C(NCCCN1CCOCC1)c1ccccc1NS(=O)(=O)c1ccc(Br)cc1,-22,-0.8,-17,3,-3,4,3370
COC(=O)CCc1c(C)c(C(=O)c2ccco2)c2ccccn12,-22,2.8,-6,·,·,-4,3633
C=CCOC(=O)C1=C(C)NC(C)=C(C(=O)OCC=C)C1c1ccc(C)o1,-18,2.3,-3,12,5,1,4142
CCOc1ccccc1NC(=O)C1CCCN(S(=O)(=O)c2cccc3cccnc23)C1 (configuration not stated),-11,4.0,10,·,·,0,6064
Cn1c(=O)c(Nc2ccc(O)cc2)c2c3c(cccc31)C(=O)c1ccccc1-2,8,17,-14,-5,13,-5,1738
CC1c2nc3ccccc3n2C(CC(=O)NC2CC2)C(=O)N1Cc1ccccc1 (configuration not stated),-19,3.2,2,-2,3,2,2518
COC(=O)c1ccc(N2CCOCC2)c(NC(=O)c2ccc3c(c2)OCCO3)c1,-14,3.1,3,-2,4,-4,5263
O=C(CN1C(=O)c2ccccc2S1(=O)=O)N1CCN(c2cccc(Cl)c2)CC1,-16,-1.8,1,·,·,-3,4797
CCC(=O)N1CCc2cc(OC)c(OC)cc2C1COc1ccccc1OC (configuration not stated),1,4.2,10,-1,-7,-18,3113
COc1ccc(Cn2cnc3c([N+](=O)[O-])c(C)c(C)cc32)cc1,-18,5.0,-10,5,1,-5,25028*
O=C(CNS(=O)(=O)c1ccccc1)OCC(=O)c1ccc(OC(=O)c2ccccc2)cc1,-14,2.0,2,-3,-1,-6,21032*
Cc1ccc(C(=O)N/N=C\c2ccc3c(c2)OCO3)cn1,-16,·,·,·,·,-6,3003
CC(C)CC(=O)Nc1nc2ccc(S(=O)(=O)N3CCOCC3)cc2s1,0,3.3,-8,7,-6,-3,3180

# Screening data deposited in PubChem by several laboratories.
